PINK1 expr mod – A Quantitative High throughput Screen to Identify Chemical Modulators of PINK1 Expression; AID 624263, 2012; 0.2% of 410,000 active; PINK1 immunofluorescence, high-content cytometry, 24 h; Potency, µM (highest dose often 76.6 µM), inactives show top-dose activation (PINK1 increase), usual class: activators; active = well fitted activation curve with a large enough effect; inconclusive = small, poorly fitted or top-dose-only effect; inactive = flat fitted curve, though single readings scatter; cell line not stated here;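 also: potency is read from the fitted curve at half-maximal effect; % of control where 0% means no effect; nearly all actives have a fitted effect of over 65% in size; a mitochondrial uncoupler was the plate control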
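Readout is PINK1 immunofluorescence, quantified alongside mitochondrial, cell and nuclear markers by laser-scanning microplate cytometry. Cells from a stable line were exposed to compound titrations (5 concentrations) for 24 hours, with CCCP controls.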
CtBP-E1A inh – qHTS Assay for Inhibitors of the CtBP/E1A Interaction; CtBP / adenovirus E1A interaction (AlphaScreen); AlphaScreen GST-E1A/His-CtBP binding, 1536-well; stronger effect = lower value; control for the full effect not named in the record; activity change, % (test concentration not listed); 0.49% of 340,000 active; AID 651724, 2012; in the data active means activity change below about -65%; inconclusive means about -30% to -65%; inactive means above about -30%; also: % is scaled to controls: 0 for no effect and ±100 for the full control effect; compound concentration not given in the record
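Steps: dispense buffer (Tris pH 8.0, NaCl 300 mM, TCEP 1 mM, BSA, Tween 20); add 5X protein mix (GST-E1A, His-CtBP, 125 nM each); pin 23 nL compound; 2 h at 37 °C, dark; add 5X beads (50 ug/mL); 1 h; read.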
Six1-Eya2 blk – qHTS Assay for Inhibitors of the Six1/Eya2 Interaction | AlphaScreen GST-Six1/His-Eya2 binding, biochemical; stronger effect = lower value; control for the full effect not named in the record | Homeobox protein SIX1 (Homo sapiens) + Protein phosphatase EYA2 (Homo sapiens), … | 0.56% of 360,000 active | activity change, % (no concentration beside the values); in the data active = activity change below about -65%; inconclusive = about -30% to -65%; inactive = above about -30%; also: % is scaled to controls: 0 for no effect and ±100 for the full control effect; compound concentration not given in the record
Target sequence (O00167 whole entry, looked up): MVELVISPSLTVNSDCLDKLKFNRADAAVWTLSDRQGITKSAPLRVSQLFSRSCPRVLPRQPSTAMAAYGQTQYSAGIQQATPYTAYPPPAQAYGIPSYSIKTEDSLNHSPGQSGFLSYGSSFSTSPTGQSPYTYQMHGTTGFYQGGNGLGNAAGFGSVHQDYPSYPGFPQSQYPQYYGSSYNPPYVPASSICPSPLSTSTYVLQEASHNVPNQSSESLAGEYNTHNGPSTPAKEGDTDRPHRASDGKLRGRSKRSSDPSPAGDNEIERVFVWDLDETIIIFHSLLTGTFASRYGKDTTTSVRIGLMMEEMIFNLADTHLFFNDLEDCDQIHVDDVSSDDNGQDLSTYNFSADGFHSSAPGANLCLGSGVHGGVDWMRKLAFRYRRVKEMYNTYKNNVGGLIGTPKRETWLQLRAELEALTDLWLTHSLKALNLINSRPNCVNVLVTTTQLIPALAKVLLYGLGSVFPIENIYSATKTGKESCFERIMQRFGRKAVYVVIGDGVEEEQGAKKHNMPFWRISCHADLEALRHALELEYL
Target sequence (Q15475 whole entry, looked up): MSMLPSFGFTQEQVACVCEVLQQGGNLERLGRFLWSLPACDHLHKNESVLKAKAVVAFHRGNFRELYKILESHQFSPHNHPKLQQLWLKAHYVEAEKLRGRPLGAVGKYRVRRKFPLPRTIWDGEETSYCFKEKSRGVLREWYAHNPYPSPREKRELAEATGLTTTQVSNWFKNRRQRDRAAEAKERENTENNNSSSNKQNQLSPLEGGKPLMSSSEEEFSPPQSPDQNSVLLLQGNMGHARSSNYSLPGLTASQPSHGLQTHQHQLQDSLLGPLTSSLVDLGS
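AlphaScreen luminescence read after one hour at 37 °C in darkness. Pin-transferred compounds met GST-Six1 and His-Eya2 protein (5X stock 250 nM/500 nM) plus glutathione donor and Ni-chelate acceptor beads (5X, 50 ug/mL).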
TRPML1 blocker – qHTS for Inhibitors of the Human Mucolipin Transient Receptor Potential 1 (TRPML1). Mucolipin-1 (Homo sapiens), Q9GZU1. TRPML1-inducible cells, Ca2+ dye fluorescence, FDSS; stronger effect = lower value; inhibition of EC80 agonist-evoked calcium signal. activity change, negative = inhibition, % (no concentration beside the values). 0.02% of 390,000 active. AID 624415, 2012; in the data active means activity change below about -50%; inconclusive means about -30% to -50%; inactive means above about -30%;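 also: stimulus is agonist 54-4 at its EC80 concentration; % is scaled to controls: 0 for no effect and ±100 for the full control effect; compound concentration not given in the record; the text of the record puts the active cut at -80%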
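Calcium fluorescence in TRPML1-DL cells induced overnight with Tet: a 110 s read after compound pin addition, then a 110 s antagonist read after challenge with 54-4 at 4 uM final (EC80).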
D2 agonist – Beta-Arrestin HTS for Positive Allosteric Modulators of the Human D2 Dopamine Receptor: Agonists; D(2) dopamine receptor (Homo sapiens), P14416; DiscoveRx PathHunter D2 beta-arrestin, luminescence, 90 min; 100% = 57 uM dopamine signal; activation, % (concentration not given with the values); 0.084% of 360,000 active; AID 624465, 2012; in the data active = activation above about 40%; inconclusive = about 15% to 40%; inactive = below about 15%; also: compound concentration not given in the record; the text of the record calls up to 30% inactive
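DiscoveRx PathHunter D2 beta-arrestin cells (2,100/well) attached overnight, then compound-stimulated 90 min at 37 C in HBSS/10 mM HEPES/0.1% Tween-20 buffer; beta-galactosidase complementation read by luminescence after 1 h at ambient temperature. Dopamine 57 uM final (EC100) as control.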
TRPML1 ag – qHTS for Agonists of the Human Mucolipin Transient Receptor Potential 1 (TRPML1). AID 624414, 2012. Mucolipin-1 (Homo sapiens), Q9GZU1. activation, % (no concentration beside the values). 0.12% of 410,000 active. TRPML1-expressing cells, Ca2+ dye fluorescence, FDSS; host cell line not named in the record; reference of the full effect not given here; in the data active = activation above about 50%; inconclusive = about 30% to 50%; inactive = below about 30%; also: 0% is about no effect; the text of the record puts the active cut at 80%
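TRPML1-DL cells, Tet-induced overnight (~16 h, 37 degrees C), loaded 45-90 min at room temperature with Ca8 no-wash calcium dye plus quencher. FDSS fluorescence: 10 s baseline, compound pin-transfer, 110 s agonist read, then EC80 54-4 (4uM final) and 110 s antagonist read.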
* marks the source's active call; other numbers are inactive results. No enrichment for hits; any-hit rate near 1%.

`Cc1ccc(C(=O)NCC(=O)Nc2ccc(C)c(S(=O)(=O)Nc3ccc(Cl)cc3)c2)s1` gave PINK1 expr mod 21%, Six1-Eya2 blk -6, TRPML1 blocker -13, D2 agonist -0.3 and TRPML1 ag 2.6.
`COc1ccc(C(=O)Nc2nc(C)cs2)cc1S(=O)(=O)N1CCCC1` gave PINK1 expr mod 1.4%, CtBP-E1A inh -4, Six1-Eya2 blk -4, TRPML1 blocker 25, D2 agonist -2.0 and TRPML1 ag 0.4.
For CC(C)CN1C(=O)C(=O)N(CC(=O)NCc2ccc3c(c2)OCO3)C1=O the results were PINK1 expr mod -0.3%, CtBP-E1A inh -1, Six1-Eya2 blk 14, TRPML1 blocker -3, D2 agonist -0.7 and TRPML1 ag -1.1.
COc1ccc(-c2noc(CNS(=O)(=O)c3ccc(NC(C)=O)cc3)n2)cc1OC was read as PINK1 expr mod 0.4%, CtBP-E1A inh -11, Six1-Eya2 blk -3, TRPML1 blocker 15, D2 agonist 0.9 and TRPML1 ag 0.5.
`Cc1[nH]c2ccccc2c1C(=O)C(=O)N1CCN(c2ccccc2)CC1` gave PINK1 expr mod 2.3%, CtBP-E1A inh 0, Six1-Eya2 blk -8, TRPML1 blocker -4, D2 agonist 0.4 and TRPML1 ag 1.0.
`COc1ccc(NC(=O)Cn2c(=O)n(CCC(=O)NCCc3ccc(OC)c(OC)c3)c(=O)c3ccccc32)cc1Cl` gave PINK1 expr mod 3.1%, TRPML1 blocker -13 and TRPML1 ag 0.7.
Screening NC(=O)CSc1ccc(S(=O)(=O)N2CCOCC2)cn1 returned PINK1 expr mod 0.3%, CtBP-E1A inh 1, Six1-Eya2 blk 4, TRPML1 blocker 31, D2 agonist 3.1 and TRPML1 ag 3.7.
Screening CCCCCC(=O)Nc1c2c(nc3ccccc13)CCC2 returned PINK1 expr mod 1.0%, Six1-Eya2 blk 0, TRPML1 blocker -18, D2 agonist 2.0 and TRPML1 ag -0.9.
For Cn1nnnc1SCC(=O)NNC(=O)c1ccc(Br)cc1 the results were PINK1 expr mod -2.0%, CtBP-E1A inh 3, Six1-Eya2 blk 0, TRPML1 blocker 12, D2 agonist 3.7 and TRPML1 ag 1.6.
O=C(Nc1ccc2c(c1)C(=O)NC2=O)c1cccc(Cl)c1 was read as PINK1 expr mod 1.0%, CtBP-E1A inh 1, Six1-Eya2 blk -3, TRPML1 blocker 2, D2 agonist 1.0 and TRPML1 ag -0.8.
Screening CSc1ccc(-c2cc3c(c4c2ccn4C)C2CCC3C2)cc1 (centres undefined) returned PINK1 expr mod 0.0%, CtBP-E1A inh -17, Six1-Eya2 blk -27, TRPML1 blocker -15, D2 agonist -4.1 and TRPML1 ag -0.7.
`O=C(Nc1ccc(Cl)c(Cl)c1)N(CCCN1CCOCC1)Cc1cccs1` gave PINK1 expr mod 5.4%, CtBP-E1A inh -23, Six1-Eya2 blk 1, TRPML1 blocker 53, D2 agonist -2.3 and TRPML1 ag 4.0.
Screening COCCC(=O)N1CCC(Oc2ccc(C(=O)NC3CCOC(C)(C)C3)cc2)CC1 (centres undefined) returned PINK1 expr mod 2.1%, CtBP-E1A inh 5, Six1-Eya2 blk 8, TRPML1 blocker 39, D2 agonist -0.2 and TRPML1 ag 0.4.
`COc1cc(-c2cc(NC(C)=O)c3ncc(-c4ccc(F)cc4)n3c2)cc(OC)c1OC` gave PINK1 expr mod 4.2%, CtBP-E1A inh -9, Six1-Eya2 blk -10, TRPML1 blocker 0, D2 agonist 7.4 and TRPML1 ag -0.4.
Screening Cc1ccccc1N1CCN(Cc2nc(Cc3ccccc3F)no2)CC1 returned PINK1 expr mod 8.4%, CtBP-E1A inh 24, Six1-Eya2 blk 0, TRPML1 blocker -7, D2 agonist -1.2 and TRPML1 ag 1.1.
`Cc1ccc(S(=O)(=O)N2C[C@H]3[C@H]4C(=O)N(c5ccccc5)C(=O)[C@H]4CC(=O)[C@H]3[C@@H]2c2cccc3ccccc23)cc1` gave PINK1 expr mod 1.1%, CtBP-E1A inh 0, Six1-Eya2 blk -7, TRPML1 blocker 8, D2 agonist -0.6 and TRPML1 ag 1.5.
For CC(Cc1ccccc1)NC(=O)CCCN1C(=O)c2ccccc2C1=O (centres undefined) the results were PINK1 expr mod -1.0%, CtBP-E1A inh 2, Six1-Eya2 blk 3, TRPML1 blocker 24, D2 agonist -1.7 and TRPML1 ag -0.9.
COc1ccc(NC(=O)/C(=C\c2ccc(F)cc2)NC(=O)c2ccco2)cc1 was read as PINK1 expr mod 0.7%, CtBP-E1A inh -2, Six1-Eya2 blk 3, TRPML1 blocker 13, D2 agonist -2.6 and TRPML1 ag -0.6.
Screening CNC(=O)c1c(NC(=O)c2nc(SCc3ccc(C)cc3)ncc2Cl)sc2c1CCCC2 returned PINK1 expr mod 1.1%, TRPML1 blocker -8 and TRPML1 ag 0.2.
`COc1ccc2oc(=O)c(C(=O)Nc3cccc(C)c3)cc2c1` gave PINK1 expr mod 17%, CtBP-E1A inh 0, Six1-Eya2 blk 28, TRPML1 blocker -20, D2 agonist -0.3 and TRPML1 ag 1.1.
Screening Cc1ccc(S(=O)(=O)NNC(=O)c2sc(=S)n(C)c2C)cc1 returned PINK1 expr mod -1.4%, CtBP-E1A inh 4, Six1-Eya2 blk 18, TRPML1 blocker 29, D2 agonist 0.9 and TRPML1 ag 7.3.
Screening O=C(COc1ccc(Cl)cc1Cl)N/N=C/c1ccccn1 returned PINK1 expr mod 0.3%, CtBP-E1A inh -13, Six1-Eya2 blk -5, TRPML1 blocker 20, D2 agonist -2.4 and TRPML1 ag 0.7.
Cc1cccc(C(=O)NCC(c2cccs2)N2CCOCC2)c1 (centres undefined) was read as PINK1 expr mod 2.2%, CtBP-E1A inh 9, Six1-Eya2 blk 13, TRPML1 blocker -14, D2 agonist -5.3 and TRPML1 ag 0.0.
`Cc1cccc(C(=O)OCC(=O)N2CC(C)OC(C)C2)c1C` (centres undefined) gave PINK1 expr mod 1.2%, CtBP-E1A inh 2, Six1-Eya2 blk 5, TRPML1 blocker 19, D2 agonist -5.2 and TRPML1 ag 0.4.
`Cc1ccc(S(=O)(=O)Nc2nnc(CC(C)(C)C)s2)cc1` gave PINK1 expr mod 2.7%, Six1-Eya2 blk 0, TRPML1 blocker 17, D2 agonist -0.4 and TRPML1 ag -1.1.
C#CCOC(=O)C[N+](C)(C)CC=C was read as PINK1 expr mod 1.4%, CtBP-E1A inh 5, Six1-Eya2 blk 7, TRPML1 blocker -4, D2 agonist -6.3 and TRPML1 ag 0.3.
`CCCc1[nH]nc2c1C(c1c(C)nn(-c3ccccc3)c1Cl)C(C#N)=C(N)O2` (centres undefined) gave PINK1 expr mod 0.2%, CtBP-E1A inh -10, Six1-Eya2 blk -3, TRPML1 blocker 3, D2 agonist -0.7 and TRPML1 ag 0.1.
For Cc1ccc(S(=O)(=O)N(C)C[C@@H]2OCc3cnnn3CCCC(=O)N([C@H](C)CO)C[C@H]2C)cc1 the results were PINK1 expr mod -2.6%, CtBP-E1A inh -5, Six1-Eya2 blk 9, TRPML1 blocker 36, D2 agonist -0.8 and TRPML1 ag 1.1.
`CCOCc1cc(CN2CCN(c3ccccc3OC)CC2)c(O)c2ncccc12` gave PINK1 expr mod 2.8%, TRPML1 blocker -13 and TRPML1 ag 0.1.
`Cc1ccccc1CSc1nnc(-c2cccnc2)n1N` gave PINK1 expr mod -0.8%, CtBP-E1A inh 0, Six1-Eya2 blk 5, TRPML1 blocker 15, D2 agonist -4.2 and TRPML1 ag 1.0.

Next part, starting with the last 2 of the part before.
`CCOCc1cc(CN2CCN(c3ccccc3OC)CC2)c(O)c2ncccc12` gave PINK1 expr mod 2.8%, TRPML1 blocker -13 and TRPML1 ag 0.1.
`Cc1ccccc1CSc1nnc(-c2cccnc2)n1N` gave PINK1 expr mod -0.8%, CtBP-E1A inh 0, Six1-Eya2 blk 5, TRPML1 blocker 15, D2 agonist -4.2 and TRPML1 ag 1.0.
`COc1ccc(C2=NCCn3nc4cc(C(F)(F)F)ccc4c32)cc1` gave PINK1 expr mod 9.8%, Six1-Eya2 blk 0, TRPML1 blocker -7, D2 agonist 0.8 and TRPML1 ag -0.2.
Screening CCOc1ccc(NC(=O)c2ccc(NC(=S)NC3CC3)cc2)cc1 returned PINK1 expr mod 10.0%, CtBP-E1A inh 11, Six1-Eya2 blk -4, TRPML1 blocker -3, D2 agonist 2.3 and TRPML1 ag 2.1.
For COC(=O)c1ccc(N2CCS(=O)(=O)CC2)cc1 the results were PINK1 expr mod -0.8%, CtBP-E1A inh -2, Six1-Eya2 blk 7, TRPML1 blocker 16, D2 agonist -2.0 and TRPML1 ag 0.5.
O=C(Cn1nc(C(F)(F)F)c2c1CCCC2)NC1CCCC1 was read as PINK1 expr mod 1.4%, CtBP-E1A inh 0, Six1-Eya2 blk 4, TRPML1 blocker 0, D2 agonist -1.2 and TRPML1 ag -0.9.
`CCn1cnnc1SCC(=O)Nc1ccccc1C(=O)NC1CC1` gave PINK1 expr mod -1.4%, CtBP-E1A inh 2, Six1-Eya2 blk 5, TRPML1 blocker 3, D2 agonist -6.9 and TRPML1 ag -0.3.
For COc1ccc(C2NC(c3ccc(OC)cc3)C(C)C(=O)C2C)cc1 (centres undefined) the results were PINK1 expr mod 3.3%, CtBP-E1A inh 3, Six1-Eya2 blk 7, TRPML1 blocker -18, D2 agonist -2.1 and TRPML1 ag 2.8.
CCCCC(CCC(=O)Nc1ccn(-c2ccccc2)n1)C(=O)O (centres undefined) was read as PINK1 expr mod 0.0%, CtBP-E1A inh 0, Six1-Eya2 blk 3 and D2 agonist -4.9.
COc1ccc(CNC(=O)Cn2c(=O)oc3ccccc32)cc1OC was read as PINK1 expr mod 1.4%, CtBP-E1A inh 7, Six1-Eya2 blk 5, TRPML1 blocker -24, D2 agonist 2.3 and TRPML1 ag -0.6.
For Cc1cccc(C(=O)N2c3ccccc3C(=O)OC2c2ccc3c(c2)OCO3)c1 (centres undefined) the results were PINK1 expr mod 4.0%, CtBP-E1A inh -5, Six1-Eya2 blk -9, TRPML1 blocker 8, D2 agonist -8.2 and TRPML1 ag 1.6.
`Cc1cccc(N(CC(=O)N2CCN(C)CC2)S(=O)(=O)c2ccccc2)c1` gave PINK1 expr mod -2.5%, CtBP-E1A inh 2, Six1-Eya2 blk 5, TRPML1 blocker 2, D2 agonist 1.5 and TRPML1 ag -0.3.

Screens (PubChem)
